YopH inh – blocks Yersinia enterocolitica YopH tyrosine phosphatase. AID 898. fluorescence Ex485/Em525. inhibition, %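 (about 10 µM by stock and volumes)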. hit rate 0.16% among 140,000;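 active means inhibition of 50% or more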;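 further: controls were vehicle for no effect and minimum signal wells for full effect; inactives centre near -20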
RecA intein inh – Mtb RecA intein splicing inhibition; cell-free RecA intein splicing, fluorescence; inhibition, %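 (about 9 µM by stock and volumes)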; AID 2221; hit rate 0.75% among 290,000; in the data active means inhibition above about 30%; inconclusive means no clear call, values can overlap the other calls;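 further: 0% = vehicle wells and 100% = reference inhibitor control wells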
Target sequence (P9WHJ3 whole entry, looked up): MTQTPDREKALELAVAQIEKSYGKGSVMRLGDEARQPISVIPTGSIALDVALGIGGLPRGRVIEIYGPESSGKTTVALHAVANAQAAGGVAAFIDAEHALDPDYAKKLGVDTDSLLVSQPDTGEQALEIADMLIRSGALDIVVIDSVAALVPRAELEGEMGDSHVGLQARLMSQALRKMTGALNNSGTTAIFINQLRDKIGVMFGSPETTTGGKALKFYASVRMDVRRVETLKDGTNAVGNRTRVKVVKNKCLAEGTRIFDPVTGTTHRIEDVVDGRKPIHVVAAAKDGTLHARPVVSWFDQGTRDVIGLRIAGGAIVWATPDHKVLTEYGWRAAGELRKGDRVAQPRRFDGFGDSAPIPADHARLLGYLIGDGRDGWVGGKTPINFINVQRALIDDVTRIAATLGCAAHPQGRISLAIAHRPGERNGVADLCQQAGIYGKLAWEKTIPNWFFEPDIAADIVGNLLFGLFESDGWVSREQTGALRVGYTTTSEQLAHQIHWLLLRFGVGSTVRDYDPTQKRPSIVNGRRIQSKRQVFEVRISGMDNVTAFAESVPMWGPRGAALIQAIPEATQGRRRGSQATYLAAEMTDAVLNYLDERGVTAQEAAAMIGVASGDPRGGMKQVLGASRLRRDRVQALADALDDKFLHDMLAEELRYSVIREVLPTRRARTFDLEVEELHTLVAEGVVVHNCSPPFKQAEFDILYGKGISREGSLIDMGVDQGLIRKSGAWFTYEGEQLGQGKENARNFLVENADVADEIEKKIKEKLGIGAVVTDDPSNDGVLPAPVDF
Mtb betalactam – beta-lactam sensitization of Mtb H37Rv | hit rate 0.27% among 330,000 | inhibition, % at 25 µM | M. tuberculosis H37Rv growth with meropenem, percent inhibition; hits of this screen are not shown here;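 active means about 74% or more and at least 40 points above the plate without the antibiotic, then above 30% in a dose series; inconclusive means first-round hits that could not be retested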;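 further: growth measured after seven days incubation then overnight dye step; 0% = bacteria only wells and 100% = bacteria with antibiotic; twin plates without the antibiotic show which effects depend on it; some results filed as inactive read as strong as hits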
Arbovirus inh – arbovirus infection inhibition | hit rate 0.37% among 200,000 | arbovirus infection cell-based antiviral screen | inhibition, % at 10 µM | AID 1251;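 active means inhibition from about 30%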;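 further: bluetongue infection of BSR cells; cell survival read as ATP light after 72 h; 0% = infected wells without compound and 100% = uninfected wells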
Mtb H37Rv – M. tuberculosis H37Rv growth inhibitors, H37Rv strain (AID 1626). M. tuberculosis H37Rv growth inhibition; higher % means a stronger effect. inhibition, % at 10 µM, or IC50 in µM where a hit was titrated. hit rate 0.95% among 220,000;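 active means confirmed in a dose series; inconclusive means inhibition above 80% but not taken into the dose series; inactive means below 80% or under 30% at every dose of the series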;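 further: bacteria incubated seven days before Alamar blue readout; 0% = bacteria only wells and 100% = bacteria with antibiotic wells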
Arbovirus inh repeat – also measured in Arbovirus inh; calls as there; inhibition, %; measured here: 10K subset replicate screen; many hits read low in the repeat;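 first of two repeat runs on a subset; 0% = infected and 100% = uninfected wells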
* = called active by the depositor; ? = inconclusive; nt = no result given.

SMILES	YopH inh	RecA intein inh	Mtb betalactam	Arbovirus inh	Mtb H37Rv	others
CNC(=O)O/N=C(\C)Cc1nnn(-c2cc(C)on2)n1	nt	nt	-5	nt	-5%
O=C(c1ccccc1)[C@@H]1[C@@H](C(=O)c2ccc(F)cc2)[C@@]2(C(=O)Nc3ccccc32)[C@H]2c3ccccc3C=CN12	23	31*	56	17	-1%
COc1cccc(NC(=O)c2ccccc2N2C(=O)C3C4C=CC(C5CC45)C3C2=O)c1 (centres undefined)	nt	-2.6	-2	nt	nt
CCc1ccc(NC(=S)N(CCN2CCCCC2)Cc2ccco2)cc1	-9	-5.6	5	10	9%
COC(=O)c1oc(-c2ccccc2)nc1C	nt	-3.9	-1	-1	-2%
O=C(O)/C=C/C(=O)N1CCN(c2cccc(Cl)c2)CC1	nt	3.3	-2	0	-11%
Cc1cc(C)c(S(=O)(=O)N2CCCC2)c(C)c1	nt	-1.6	-2	nt	nt
CC(C)c1ccc(NC(=O)COC(=O)C2=COCCO2)cc1	-46	-0.6	98	6	79%
CC(C(=O)O)c1n[nH]c(=O)c2ccccc12 (centres undefined)	-29	15	nt	19	-3%
CCOC(=O)c1cccc(NC(=O)CCS(=O)(=O)c2ccc(Br)s2)c1	-16	-1.7	-2	-13	-3%
CCOC(=O)c1c(N=CN(C)C)c(C#N)c2n1CCCC2	-14	-3.0	0	1	-3%
CCn1c(SCC(=O)Nc2cc(C)on2)nc2c([nH]c3ccccc32)c1=O	nt	-3.4	-8	nt	nt
O=c1[nH]n(Cc2ccccc2)c2ccccc12	nt	-4.9	-4	nt	nt
NS(=O)(=O)c1ccc(CCNC(=O)CNS(=O)(=O)c2cccc(Br)c2)cc1	nt	-2.1	-6	-1	5%
O=C(NCC(=O)N1CCN(c2ccccn2)CC1)c1ccc(Br)o1	nt	2.7	-8	nt	nt
COc1ccc(C2C(C#N)=C(SCC(=O)Nc3ccc(C)cc3)NC3=C2C(=O)CC(C)(C)C3)cc1 (centres undefined)	-29	nt	nt	26	-4%
CC1CN(C(=O)COC(=O)c2cc(Cl)ccc2Cl)CC(C)O1 (centres undefined)	nt	1.6	6	6	-1%
COc1cccc(CN2CC=C(c3ccc(F)cc3)CC2)c1	nt	0.2	2	nt	nt
COc1ccc2cc(C(=O)NCCCN3CCCC3=O)[nH]c2c1	nt	-0.6	-1	nt	nt
COc1ccc(-c2cc(=O)c3ccccc3o2)cc1	nt	2.7	-5	nt	5%

Filtered by structure: those above with an NH in an aromatic ring (4)
SMILES	YopH inh	RecA intein inh	Mtb betalactam	Arbovirus inh	Mtb H37Rv	others
CC(C(=O)O)c1n[nH]c(=O)c2ccccc12 (centres undefined)	-29	15	nt	19	-3%
CCn1c(SCC(=O)Nc2cc(C)on2)nc2c([nH]c3ccccc32)c1=O	nt	-3.4	-8	nt	nt
O=c1[nH]n(Cc2ccccc2)c2ccccc12	nt	-4.9	-4	nt	nt
COc1ccc2cc(C(=O)NCCCN3CCCC3=O)[nH]c2c1	nt	-0.6	-1	nt	nt

Further records follow:
SMILES	YopH inh	RecA intein inh	Mtb betalactam	Arbovirus inh	Mtb H37Rv	others
COc1cccc2cc(-c3nc4ccccc4o3)c(=O)oc12	nt	-4.3	1	-12	11%
O=C(COc1ccc2c(c1)oc(=O)c1ccccc12)NCCCN1CCOCC1	nt	1.5	-4	nt	nt
COc1ccc(CN(C(=O)CSc2nnc(-c3c[nH]c4ccccc34)o2)c2ccc(F)cc2)cc1OC	4	7.1	-1	-10	14%
COc1cccc(CNC(=O)N2CCN(c3ccccc3C)CC2)c1	nt	1.7	-6	nt	nt
O=S(=O)(N/N=C\c1ccc2c(c1)OCO2)c1ccc(Cl)cc1	-14	0.9	-14	-2	2%
CCOc1ccc(NC(=O)c2cccc3c2C(=O)N(Cc2cccnc2)C3)cc1	-19	-0.3	16	-3	2%
Cc1ccc(OCC(=O)N/N=C/c2ccco2)cc1	-2	-1.2	0	3	-7%
COC(=O)c1cc(S(=O)(=O)N(C)c2ccc(C)c(C)c2)c[nH]1	nt	-0.9	5	nt	nt
CN(C)/C=C(\C#N)C(=O)N/N=C(\CC(=O)C(F)(F)F)c1ccco1	nt	-0.4	-2	4	9%
Cc1ccc(S(=O)(=O)c2c(C)nn(-c3ccccc3)c2OC(=O)c2ccco2)cc1	-33	2.7	1	0	-3%
Cc1ccc(NS(=O)(=O)c2cc(NC(=O)c3ccc4c(c3)NC(=O)CS4)ccc2Cl)c(C)c1	nt	13	98	-13	?
Cc1nn(-c2ccccc2)c2sc(C(=O)NNC(=O)COc3cccc4ccccc34)cc12	-14	0.9	-22	-10	-5%
COc1ccc(CN(C)C(=O)CCN2C(=O)c3ccccc3C2=O)c(OC)c1OC	nt	0.0	-1	nt	nt
CC(C)Cc1nc(SCC(=O)N2CCCCC2)c2c(=O)n(C)c(=O)n(C)c2n1	nt	-0.5	5	nt	nt
O=C(CSc1ccccn1)C12CC3CC(CC(C3)C1)C2	nt	6.6	6	3	-1%
C/C(=N\NC(=S)NC1CCCCC1)c1cccc(C(F)(F)F)c1	nt	-0.8	-11	nt	3%
Cc1ccc(NC(=O)c2ccc(-n3cccn3)c([N+](=O)[O-])c2)cc1	6	1.2	5	-10	-5%
CCN1CCN(C2CCCCC2NS(=O)(=O)c2ccc(Cl)cc2)CC1 (centres undefined)	nt	-1.5	17	nt	nt
COc1ccc(Nc2nc(C)nc3c2nnn3Cc2ccccc2Cl)c(OC)c1	nt	-8.7	-1	nt	nt
Cc1ccc(Cl)cc1NC(=O)Cn1cc(C(F)(F)F)cc(Cl)c1=O	-22	0.9	6	-18	2%

Brought forward from above: 7 entries, followed by the next part.
SMILES	YopH inh	RecA intein inh	Mtb betalactam	Arbovirus inh	Mtb H37Rv	others
CC(C)Cc1nc(SCC(=O)N2CCCCC2)c2c(=O)n(C)c(=O)n(C)c2n1	nt	-0.5	5	nt	nt
O=C(CSc1ccccn1)C12CC3CC(CC(C3)C1)C2	nt	6.6	6	3	-1%
C/C(=N\NC(=S)NC1CCCCC1)c1cccc(C(F)(F)F)c1	nt	-0.8	-11	nt	3%
Cc1ccc(NC(=O)c2ccc(-n3cccn3)c([N+](=O)[O-])c2)cc1	6	1.2	5	-10	-5%
CCN1CCN(C2CCCCC2NS(=O)(=O)c2ccc(Cl)cc2)CC1 (centres undefined)	nt	-1.5	17	nt	nt
COc1ccc(Nc2nc(C)nc3c2nnn3Cc2ccccc2Cl)c(OC)c1	nt	-8.7	-1	nt	nt
Cc1ccc(Cl)cc1NC(=O)Cn1cc(C(F)(F)F)cc(Cl)c1=O	-22	0.9	6	-18	2%
Cc1c(OC(C(=O)O)c2ccccc2)ccc2c1oc(=O)c1ccccc12 (centres undefined)	nt	-0.4	-6	nt	nt
CC(C)Oc1cccc(NC(=O)c2cnccc2C(F)(F)F)c1	nt	-2.1	-11	nt	-12%
NC(CCC(=O)O)C12CC3CC(CC(C3)C1)C2 (centres undefined)	nt	-0.3	-3	10	0%
O=C1N=c2ccccc2=C1c1[nH]c(=S)[nH]c1O	-24	3.1	5	3	5%
O=C(NCC1CCCO1)NC12CC3CC(CC(C3)C1)C2 (centres undefined)	-34	-2.0	-4	1	-7%
COc1ccccc1N(CC(O)Cn1ccnc1C)S(=O)(=O)c1ccccc1 (centres undefined)	nt	1.9	-4	7	3%
CC(C)(C)c1ccc(C(=O)NCC(=O)OCC(=O)N2CCN(S(=O)(=O)c3ccc(Cl)cc3)CC2)cc1	nt	-2.3	5	nt	nt
O=C(OCc1cc(Cl)ccc1OC(F)F)c1cc(S(=O)(=O)O)ccc1O	-35	nt	nt	5	0%
Cc1ccc(CCNS(=O)(=O)c2ccc3c(c2)NC(=O)CCS3)cc1	nt	2.1	3	nt	nt
CCn1c(SCC(=O)Nc2nccs2)nnc1-c1ccc(S(=O)(=O)N2CCCCC2)cc1	-33	1.4	-2	5	-10%
COc1cccc(N(C(=O)c2sc(C)nc2C)C(C(=O)NCC2CCCO2)c2ccccc2)c1 (centres undefined)	nt	2.0	4	nt	nt
CNNC(=O)C(C)NC(=O)c1ccc(Br)cc1 (centres undefined)	3	-2.6	-8	-7	-3%
C=CCN1C(=O)c2ccccc2Sc2ccc(C(=O)N3CCN(C)CC3)cc21	-27	0.9	-13	-1	nt
CN(C)c1ccc(N2CC(C)(C)C2=O)cc1	nt	-4.0	-1	-3	1%
O=C(Nc1ccc(N2CCOCC2)cc1)c1cccc(S(=O)(=O)N2CCCC2)c1	-7	-1.1	2	-3	-7%
CCc1nc2ccc(C(=O)Nc3ccc(NC(C)=O)cc3)cc2nc1CC	-11	3.0	3	-12	-3%
O=S(=O)(c1ccc(S(=O)(=O)N2CCC(O)CC2)cc1)N1CCCC1	nt	1.4	3	nt	nt
CCN(C(=S)NC(=O)CCc1ccccc1)c1ccccc1	-21	-0.1	3	1	-2%
COc1ccc(-n2nc(C(=O)NCC(=O)Nc3cc(OC)c(OC)c(OC)c3)c3ccccc3c2=O)cc1	nt	3.0	0	nt	nt
COc1ccc(CNC(=O)Cn2nc([N+](=O)[O-])c(Br)c2C)cc1OC	nt	-1.7	-9	nt	nt
CCn1c(C(=O)NCc2ccccn2)cc2sccc21	-27	-7.4	-4	11	-1%
O=C(Nc1ccccc1)Oc1cccc(Br)c1	nt	6.5	-5	nt	-5%
CSCCC(NS(=O)(=O)c1cccc(C(F)(F)F)c1)C(=O)Nc1ccccc1N1CCCC1 (centres undefined)	nt	-0.6	3	nt	nt
COc1ccc(-c2nnn(CC(=O)N(CCO)C(C(=O)NC3CCCC3)c3ccncc3)n2)cc1 (centres undefined)	nt	-4.4	2	2	-8%
CC(C)(C)c1ccc(-c2noc(CCC(N)=O)n2)cc1	-3	-2.5	62	3	3%
Cc1cc(NC(=O)C2CCCC2)nc2c1c(=O)oc1ccccc12	-8	2.1	1	-3	16%
COc1ccc(NC(=O)/C(C#N)=C/c2c(C)nn(-c3ccc(F)cc3)c2Cl)cc1OC	-32	14	-3	0	3%
CCn1cc(C2C3=C(CC(C)(C)CC3=O)N(c3ccccc3)C3=C2C(=O)CC(C)(C)C3)c(C)n1	-11	-6.9	-1	-12	-3%
Cc1cccc(N=N/C(=C\O)C(=O)c2ccc(Br)cc2)c1	nt	5.6	64	-33	3%
CCOC(=O)CSc1ccc2nnc(-c3cccnc3)n2n1	-38	1.0	0	1	4%

Copied from the listing, 3 compounds:
SMILES	YopH inh	RecA intein inh	Mtb betalactam	Arbovirus inh	Mtb H37Rv	others
CCn1cc(C2C3=C(CC(C)(C)CC3=O)N(c3ccccc3)C3=C2C(=O)CC(C)(C)C3)c(C)n1	-11	-6.9	-1	-12	-3%
Cc1cccc(N=N/C(=C\O)C(=O)c2ccc(Br)cc2)c1	nt	5.6	64	-33	3%
CCOC(=O)CSc1ccc2nnc(-c3cccnc3)n2n1	-38	1.0	0	1	4%

The list goes on.
SMILES	YopH inh	RecA intein inh	Mtb betalactam	Arbovirus inh	Mtb H37Rv	others
S=c1nc(C23CC4CC(CC(C4)C2)C3)nc2sccn12	nt	0.3	-3	-14	-2%
Cc1ccc(S(=O)(=O)N2CCCC2C(=O)Nc2ccc(O)cc2)cc1 (centres undefined)	-14	-0.3	-7	-11	-6%
COc1cccc(C(=O)Nc2cc(Cl)c(O)c(Cl)c2)c1	nt	6.6	-10	nt	-3%
COc1ccc(NC(=O)n2nc(OC(=O)c3cccs3)cc2N)cc1	nt	29	68	-1	1%
Cc1ccc(-n2ncc(C(=O)Nc3cc(Cl)cc(Cl)c3)c2C2CCNCC2)cc1C	nt	6.7	nt	-29	nt
Cc1cc(C)cc(N2CC(C)Cn3c2nc2c3c(=O)[nH]c(=O)n2C)c1 (centres undefined)	nt	0.1	5	nt	nt
Cc1csc(NC(=O)C(Cc2ccccc2)n2cccc2)n1 (centres undefined)	-19	-3.8	5	3	-5%	Arbovirus inh repeat=6

Screening data as filed in PubChem BioAssay.

Only part of the results is shown; count on the stated rates, not on these rows.
